# Sfp PPTase inh: Sfp phosphopantetheinyl transferase inhibition | AID 1490 | Potency, µM, inactives show max response, negative = inhibition, usual class: inhibitors | Q9F4F7 | actives 3.5% (n = 310,000) | Biochemical Sfp PPTase activity, qHTS; active = well fitted inhibition curve with a large enough effect; inconclusive = small, poorly fitted or top-dose-only effect, or another doubt; inactive = no such curve, though single readings can be large or run the other way;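 note: the enzyme is Sfp with the accession as filed and its product quenches rhodamine fluorescence; potency is the fitted concentration of half-maximal effect; 0% = enzyme reaction without inhibitor and -100% = no enzyme wells; top concentration of the series not given in the record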
#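 Sfp 15 nM + cpd, 15 min RT; start w/ rhodamine-CoA 5 uM, BHQ-2-YbbR 12.5 uM (final); 50 mM Hepes pH 7.6, 10 mM MgCl2, 0.01% NP-40, 0.01% BSA; read 525/598 nm at 0 and 30 min.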
# D2 potentiator: positive allosteric modulators of human D2 dopamine receptor; P14416; DiscoveRx D2 beta-arrestin cells, luminescence, 90 min; 100% = 57 uM dopamine signal; actives 0.23% (n = 360,000); potentiation, % (no concentration beside the values); AID 624464; active = potentiation of 50% or more; inconclusive = 30% to 50%; inactive = 30% or less;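 note: compound concentration not given in the record; tested on top of an EC20 dose of dopamine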
#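 PathHunter D2 cells, attached overnight at 37 deg C, received compound in DMSO plus dopamine at EC20 (50 nM final) for 90 min at 37 deg C. Beta-arrestin recruitment was read as luminescence after 1 h with detection reagent at ambient temperature.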
# gsp antag: gsp mutant antagonism | gsp-mutant cells, cAMP HTRF, 30 min; control for the full effect not named in the record | Potency, µM (series often up to 76.9 µM), without a hit: at the top dose activity change, negative = inhibition, actives largely listed as inhibitors | actives 0.4% (n = 340,000) | AID 624288; active = falling curve of any shape with a large fitted effect; inconclusive = falling curve, mostly with a smaller effect; inactive = flat or rising curve; cell line not stated here;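 note: intracellular cAMP measured with PDE inhibitor Ro 20-1724 present during compound exposure; potency is the fitted concentration of half-maximal effect; % is set by controls: 0 for no effect and ±100 for the full control effect; nearly all actives have a fitted effect of over 65% in size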
#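 Cells in G418 medium, seeded 16-24 h, 37C; buffer exchange to DPBS + 1 mM CaCl2, 0.5 mM MgCl2, 0.05% BSA; cpds in DMSO + […] (300 uM stock), 30 min 37C; HTRF cAMP detection.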
# gsp agonist: activates gsp, the McCune-Albright syndrome mutation; Potency, µM (series often up to 76.9 µM), for the others: at the top dose activation (cAMP increase), actives largely listed as activators; actives 0.13% (n = 340,000); AID 624287; gsp mutant cells, cAMP HTRF, 30 min; control for the full effect not named in the record; active = well fitted activation curve with a large enough effect; inconclusive = small, poorly fitted or top-dose-only effect, or another doubt; inactive = no such curve, though single readings can be large or run the other way; cell line not stated here;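 note: phosphodiesterase inhibitor Ro 20-1724 added with compounds to block cAMP breakdown; potency is the fitted concentration of half-maximal effect; nearly all actives have a fitted effect of over 60% in size; about a fifth of the inactives were tested at one dose only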
#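 Cells in DMEM/10% FBS with G418 were pretreated with compounds in DMSO plus […] (300 uM stock) for 30 min at 37C. cAMP was measured by HTRF (cAMP-d2 plus anti-cAMP antibody-K) after 30 min at room temperature.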
# Menin-MLL FL inh: displaces fluorescein MLL peptide from human menin. Fluorescence polarization, fluorescein-MLL peptide displacement from menin. FP activity change, % at 61.4 µM. 290,000 tested, under 10 active. AID 1766; inconclusive = falling polarisation curve, or a change in total fluorescence; inactive = total fluorescence flat and polarisation flat or rising; no compound was filed as active; the % refers to the polarisation; negative = inhibition;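 note: % of control where 0% means no effect; inhibitors lower the polarisation; unlabelled MLL peptide was the positive control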
# ClpP mod: qHTS Assay for Activators of ClpP; actives 1.9% (n = 340,000); AID 651965, 2013; purified B. subtilis ClpP, FRET peptide cleavage, 20 min; Potency, µM (titrated, usually from 57.5 µM), inactives show at the top dose activity change, negative = active; active = well fitted falling curve with a large enough effect; inconclusive = small, poorly fitted or top-dose-only effect; inactive = no such curve, though single readings can be large or run the other way; note: potency is the fitted concentration of half-maximal effect; the source files actives as falling curves though it sought activators and does not explain the sign; nearly all actives have a fitted effect of over 65% in size; many hits overshoot -100%
# Target sequence (P80244 whole entry, looked up): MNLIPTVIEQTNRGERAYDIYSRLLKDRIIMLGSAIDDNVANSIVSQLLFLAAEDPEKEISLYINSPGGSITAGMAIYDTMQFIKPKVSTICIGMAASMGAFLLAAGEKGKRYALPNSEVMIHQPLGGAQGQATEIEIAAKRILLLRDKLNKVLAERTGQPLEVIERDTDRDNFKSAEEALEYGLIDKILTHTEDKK
#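 FRET quenching reversal measured ClpP activation: 10 microg/mL B. subtilis ClpP at pH 8 with the FRET-FV decapeptide, read at 430 nm after 320 nm excitation. The 20-min minus 0-min signal was scaled between DMSO/no-enzyme wells and ADEP (5.8 microM final).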
# TRPV1 potentiator: enhances activation of the human vanilloid receptor TRPV1. Q8NER1. TRPV1-expressing cells, Fluo-8 calcium influx, capsaicin EC20 potentiation; host cell line not named in the record; control for the full effect not named in the record. potentiation, % at 8.33 µM. actives 0.02% (n = 320,000). AID 540277; active means potentiation above 80%; inconclusive means 30% to 80%; inactive means below 30%; note: 0% is about no effect
# Target sequence (Q8NER1 whole entry, looked up): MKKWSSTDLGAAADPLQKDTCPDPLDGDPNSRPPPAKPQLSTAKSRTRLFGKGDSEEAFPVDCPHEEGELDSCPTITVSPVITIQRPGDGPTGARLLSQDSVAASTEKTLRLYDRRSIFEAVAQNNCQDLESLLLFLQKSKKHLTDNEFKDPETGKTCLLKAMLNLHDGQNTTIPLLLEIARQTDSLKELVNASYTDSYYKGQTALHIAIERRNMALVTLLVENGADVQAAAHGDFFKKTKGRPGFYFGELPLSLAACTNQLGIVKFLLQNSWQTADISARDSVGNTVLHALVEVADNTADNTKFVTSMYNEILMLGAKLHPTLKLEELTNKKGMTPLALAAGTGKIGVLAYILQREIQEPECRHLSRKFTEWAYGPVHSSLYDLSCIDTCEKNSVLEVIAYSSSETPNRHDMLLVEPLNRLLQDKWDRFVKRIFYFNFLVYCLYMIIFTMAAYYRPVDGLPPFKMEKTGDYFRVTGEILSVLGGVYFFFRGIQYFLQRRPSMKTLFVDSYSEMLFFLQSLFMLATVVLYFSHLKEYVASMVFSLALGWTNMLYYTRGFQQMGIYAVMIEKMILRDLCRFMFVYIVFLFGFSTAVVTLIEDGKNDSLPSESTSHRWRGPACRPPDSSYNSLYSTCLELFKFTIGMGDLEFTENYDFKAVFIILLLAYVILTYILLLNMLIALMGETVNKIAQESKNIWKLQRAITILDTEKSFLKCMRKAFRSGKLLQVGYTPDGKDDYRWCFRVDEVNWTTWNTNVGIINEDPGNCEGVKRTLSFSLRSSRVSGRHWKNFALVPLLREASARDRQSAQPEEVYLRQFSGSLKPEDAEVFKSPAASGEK
#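 TRPV1-expressing cells were cultured overnight at 35.5C and loaded with Fluo-8 calcium dye for 40 to 90 min at room temperature. After a 10 s baseline, compound was added and calcium influx was read kinetically for 3 min (ex 480/em 520 nm).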
# * hit, by the source's call; ? = inconclusive; . = no result given; [ ] = another dose, or the depositor's remark.
Compound	Sfp PPTase inh	D2 potentiator	gsp antag	gsp agonist	Menin-MLL FL inh	ClpP mod	TRPV1 potentiator
Nc1nc(-c2cc(Cl)cc(Cl)c2OC(F)F)cs1	9%	-7	-19%	-10%	-0.2	-2.1%	5
CC(C)CNC(=O)CCc1c[nH]c2ccccc12	0%	-12	3%	0%	0.9	-15%	9
Cc1cnccc1CN(C)Cc1cn(C)nc1-c1cccc(Cl)c1	9%	-16	.	-16%[15.4 µM]	-3.2	.	-10
CC1CCCCC1NC(=O)C1CCN(S(=O)(=O)c2cccc3nsnc23)CC1 (stereo not given)	-7%	-21	4%	11%	2.2	-0.5%	-10
CN(C)c1cccc(C(=O)NCc2ccccc2Cl)c1	-5%	-4	-10%	15%	-5.9	.	-8
O=C(Oc1cccc2c(O)cccc12)c1ccccc1	1%	19	-7%	-9%	-1.5	1.0%	28
COc1ccc(Cl)cc1NC(=O)CN(C)CC(=O)Nc1ccccc1-c1ccccc1	-12%	-29	?	0%[15.4 µM]	-1.4	-0.6%	-29
O=C(c1ccncc1)N1N=C2CCCCCC2C1(O)C(F)(F)F (stereo not given)	11%	-2	9%	-36%[inhibitor]	4.2	-1.6%	2
CCOc1ccccc1C(=O)OC(C)C(=O)Nc1ccc(S(=O)(=O)N2CCCC2)cc1 (stereo not given)	.	-6	-26%	-46%[inhibitor]	.	-3.2%	5
O=C(O)CSc1nnc2n(-c3ccccc3)c(=O)c3ccccc3n12	10%	0	0%	?	-5.0	.	17
O=C(/C=C/c1ccc(OCCCF)cc1)NCc1ccc(Cl)cc1	-1%	7	-12%	-11%	0.1	2.0%	-2
CC(O)C1CCC2C3CC[C@H]4CC(O)CCC4(C)C3CC3(OCCO3)C12C (stereo not given in full)	0%	1	-18%	-38%[inhibitor]	-0.2	-2.1%	0
COc1ccc(N2CCN(S(=O)(=O)CCNC(=O)CCCc3ccccc3)CC2)cc1	.	-3	4%	0%[15.4 µM]	.	.	26
O=C(NC(=S)NC1CCCc2ccccc21)c1ccco1 (stereo not given)	-16%	-5	-9%	-1%[15.4 µM]	-1.2	.	-5
COC(=O)c1ccc(S(=O)(=O)N2CCCCCC2)cc1	4%	3	-1%	-4%	-2.6	-0.8%	-1
COCCN(CCOC)C(=O)CC(=O)N(CCOC)CCOC	9%	-4	5%	1%	1.2	-1.4%	2
CC(c1ccccc1)C1C(C#N)=C(N)OC2=C1C(=O)CCC2 (stereo not given)	1%	-6	-2%	-11%	2.5	-1.4%	-1
O=C(NCCc1ccccc1)C(=O)c1c(-c2ccccc2)cc2ccccn12	-13%	-21	-1%	0%	1.5	1.1%	-5
CCn1c(CC(=O)Nc2ccccc2F)nnc1SCC(=O)NC1CCCC1	22%	-5	11%	-1%	1.5	.	6
Cc1ccc(C)n1NC(=O)c1ccc([N+](=O)[O-])cc1	3%	9	4%	5%[15.4 µM]	0.0	.	?
Cc1nnc(SCCCOc2ccccc2)nc1C	.	-4	3%	-16%	.	-0.2%	.
CCS(=O)(=O)N1Cc2ccccc2CC1C(=O)Nc1ccc(C)cc1 (stereo not given)	14%	-18	7%	-26%	2.6	1.7%	-5
COc1ccc(NC(=O)CN(C)C(=O)c2cc(-c3ccco3)nc3ccccc23)cc1	.	-1	-18%	9%	.	-14%	-2
CCSc1nc2ccccc2c(=O)n1OCC(=O)OC	15%	-13	-10%	-4%	-4.4	1.0%	14
CC1(C)C2CC=C(/C=N/NC(=S)NCCc3ccccc3)C1C2 (stereo not given)	1%	-14	2%	3%[15.4 µM]	-2.9	.	7

# Limited to gsp agonist and D2 potentiator (2 entries from above):
canonical_smiles,gsp agonist,D2 potentiator
CCS(=O)(=O)N1Cc2ccccc2CC1C(=O)Nc1ccc(C)cc1 (stereo not given),-26%,-18
COc1ccc(NC(=O)CN(C)C(=O)c2cc(-c3ccco3)nc3ccccc23)cc1,9%,-1

# (list continues)
Compound	Sfp PPTase inh	D2 potentiator	gsp antag	gsp agonist	Menin-MLL FL inh	ClpP mod	TRPV1 potentiator
O=C(N/N=C/C=C/c1ccccc1)c1cccnc1	13%	-10	1%	-30%	4.3	.	-26
COc1cc(C2C(C#N)=C(N)Oc3cc(C)oc(=O)c32)cc2c1OCO2 (stereo not given)	-9%	12	5%	6%	7.6	-3.3%	-4
CN1CCN(S(=O)(=O)c2cccc(C(=O)Oc3cccc(Br)c3)c2)CC1	.	-14	5%	3%[15.4 µM]	.	0.0%	-9
O=C(COC(=O)c1ccccc1NCc1ccco1)Nc1ccc2c(c1)OCO2	-7%	-6	-6%	-35%[inhibitor]	1.1	?	1
COc1cccc(/C=C2\Oc3cc(OCC(=O)N4CCC[C@H]4C(=O)O)ccc3C2=O)c1	6%	-6	6%	.	11	-10%	9
CCc1cc(=O)oc2cc(OC(C)C(=O)NCc3ccccn3)ccc12 (stereo not given)	14%	-5	-3%	-26%	-0.1	3.6%	-8
Clc1cccc(-c2nn3c(Cn4cnc5ccccc54)nnc3s2)c1	20µM*	-5	-6%	21%	0.5	0.4%	-20
Cc1ccc(/C=N/NC(=O)Cc2cccn2C)cc1	-8%	-4	2%	-2%[15.4 µM]	4.7	-5.3%	-13
Cc1cccc(N2CCN(CC(O)COc3ccc4ccccc4c3)CC2)c1 (stereo not given)	.	0	-9%	?	.	.	.
Cc1ccc(C(=O)OCC(=O)NCCN2C(=O)CSC2=O)cc1[N+](=O)[O-]	.	-4	4%	1%	.	-2.4%	.
Cc1cccc(S(=O)(=O)c2c(N)n(/N=C/c3cccnc3)c3nc4ccccc4nc23)c1	1%	9	-5%	14%	-0.2	0.2%	0
CN(C)C(=O)c1cc(C(=O)Cc2ccccc2)c[nH]1	2%	-13	4%	-41%[inhibitor]	-6.5	0.0%	-27
CC(/C=C/c1ccco1)=N/NC(=O)c1ccc(C)nc1	-7%	-4	-25%	9%[15.4 µM]	2.1	-0.2%	10
CCOc1c(CNc2nnnn2C)cccc1OC	21%	1	1%	28%	-5.4	1.9%	-7
CCc1cccc(CC)c1NC(=O)CN1CCc2cc(OC)c(OC)cc2C1	-15%	.	.	.	1.5	.	1
CCc1csc(CCNC(=O)C2CCC(=O)N(CCc3cccc(F)c3)C2)n1 (stereo not given)	10%	-11	-9%	-3%[15.4 µM]	.	1.9%	1
Cc1cc(C(=O)CN2C(=O)C(=O)N(CC(C)C)C2=O)c(C)n1C1CC1	.	-19	1%	20%	.	1.1%	-16
COc1ccccc1OCC(=O)Nc1sc2c(c1C(=O)NCC1CCCO1)CCC2 (stereo not given)	-23%	-22	-12%	-77%[inhibitor]	2.5	-3.6%	13
Cc1cc(C)n(C(=O)CNc2ccccc2Cl)n1	4%	10	-2%	?	1.3	1.0%	-3
O=C(NC12CC3CC(CC(C3)C1)C2)c1cccnc1	11%	1	11%	-24%	2.2	0.6%	-3
CCN(CC(=O)Nc1ccc(NC(C)=O)cc1)C(=O)/C=C/c1cn(Cc2ccccc2)nc1-c1cccnc1	.	-2	-3%	0%[15.4 µM]	.	.	1
Cc1cccc(CC(=O)N2CCC(n3nccc3NC(=O)C3CC3)CC2)c1	26%	-2	14%	2%	2.8	0.9%	-1
Cc1cccc(/C=N/NC(=O)CNc2cccc3ccccc23)n1	-3%	4	-10%	-65%[inhibitor]	.	2.5%	12
CC(C)C[C@@H](C(=O)O)N(Cc1cccc(CN([C@@H](CC(C)C)C(=O)O)S(C)(=O)=O)c1)S(C)(=O)=O	6%	-2	1%	.	-0.4	1.8%	-5
COc1ccc(C2c3[nH]c4ccccc4c3C[C@H]3C(=O)N(C4CCN(Cc5ccccc5)CC4)CC(=O)N23)cc1OC (stereo not given in full)	1%	-7	-12%	-41%[inhibitor]	-0.3	-0.1%	-4

# Full records, quoted from the list. Screens in order: Sfp PPTase inh | D2 potentiator | gsp antag | gsp agonist | Menin-MLL FL inh | ClpP mod | TRPV1 potentiator
# Profile of `Cc1cccc(CC(=O)N2CCC(n3nccc3NC(=O)C3CC3)CC2)c1` → 26% | -2 | 14% | 2% | 2.8 | 0.9% | -1
# Profile of `CN(C)C(=O)c1cc(C(=O)Cc2ccccc2)c[nH]1` → 2% | -13 | 4% | -41%[inhibitor] | -6.5 | 0.0% | -27

# (list continues)
Compound	Sfp PPTase inh	D2 potentiator	gsp antag	gsp agonist	Menin-MLL FL inh	ClpP mod	TRPV1 potentiator
Cc1cccc(NC(=S)NC(NC(=O)c2ccco2)C(Cl)(Cl)Cl)c1 (stereo not given)	3%	-29	-9%	0%	0.8	0.0%	9
COCCNC(=O)C1c2cc(OC)c(OC)cc2C(=O)N(C)C1c1cccnc1 (stereo not given)	11%	0	8%	-1%	-0.1	-0.9%	-10
CC(C)CCNC(=O)c1ccc2c(Cl)c3c(nc2c1)CCC3	?	-9	-12%	-5%[15.4 µM]	2.3	-25%	-12
O=C(NNC1=NS(=O)(=O)c2ccccc21)c1ccccc1Cl	12%	1	0%	-4%[15.4 µM]	-2.4	.	8
O=C(NCc1ccncc1)c1ccccc1Nc1ccc(SC(F)F)cc1	-1%	-9	?	10%	6.9	.	-4
COc1ccccc1NS(=O)(=O)c1cccc(NC(=O)C2CC(=O)N(Cc3ccccc3)C2)c1 (stereo not given)	5%	-8	1%	14%[15.4 µM]	-5.9	.	-7
CC(C)(C)NS(=O)(=O)NC(=O)C1=C(N2CCCC2)COC1=O	.	-11	9%	-57%[inhibitor]	.	-2.5%	.
COCCCN1C(=O)C(=O)/C(=C(/O)c2ccc(OC(C)C)c(C)c2)C1c1ccncc1 (stereo not given)	9%	21	11%	?	4.3	3.7%	.
O=C(c1cc([N+](=O)[O-])ccc1N1CCCCC1)N1CCCCC1	-2%	-1	3%	-29%	3.3	1.0%	-28
Cc1nn(C)c(Cl)c1/C=N/OC(=O)c1ccccc1	-1%	-2	8%	43%	-4.8	.	-10
COc1ccccc1NC(=O)c1oc2ccccc2c1NC(=O)c1cc(OC)c(OC)c(OC)c1	.	-5	26%	21%	.	?	.
